Compound activity: PubChem, several laboratories
Bfl-1 A1 inh = caspase 3/7 activation in MEF A1-2A-BIM cells, primary screen, A1 inhibitor project, cell-based, luminescence, HTS; caspase activation, % (test concentration not listed); Caspase-Glo 3/7 luminescence, 3 h; percent of clofoctol response, vehicle zero; 0.066% of 330,000 active;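 active means over half of replicate activation scores above 10%, or exactly half above 10 with the replicate mean above 10; inconclusive means replicate mean below 10 yet half the replicates above 10; inactive means over half of replicates below 10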;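 further: wells of about 30 µL received 50 nL stock; many hits fall short of the cut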
ALR H2O2 inh = inhibitors of human ALR sulfhydryl oxidase, primary screen, biochemical, H2O2 detection, HRP-luminol luminescence, single point. FAD-linked sulfhydryl oxidase ALR (Homo sapiens), P55789. purified ALR, DTT oxidation. inhibition, % (test concentration not listed). 3.8% of 290,000 active;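 active means mean and each replicate at 75% or more; inconclusive means only one of the two met; inactive means neither met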;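 further: stock transfer was 7.5 nL into about 7.5 µL; 0% = neutral wells and 100% = wells with inactivated enzyme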
T cruzi inh = inhibitors of intracellular T. cruzi growth, primary screen, luminescence, NIH3T3 host cells; T. cruzi beta-gal in NIH3T3, 90 h; 1.4% of 300,000 active; inhibition, % (no concentration beside the values); AID 1885, 2009;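 active means mean inhibition across valid replicates above about 55%, limit read from the data; inconclusive means mean below that limit but half or more replicates reach it; inactive means mean below it, under half of replicates reach it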;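 further: signal also drops with host cell toxicity which is not excluded here; 0% = plate median of DMSO wells and 100% = zero luminescence signal; higher percent means less beta-gal luminescence so fewer parasites; stock transfer was 50 nL into about 50 µL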
Ecoli rRNA inh = reduced GFP signal of wild-type E. coli, primary screen, bacterial rRNA inhibitor project, GFP/RFP fluorescence, OD600, single point | E. coli WT GFP vs humanized-ribosome RFP mutants, 24 h; stronger effect = lower value; DMSO median 0, no signal -100 | GFP signal change (wild-type ribosome), % (concentration not given with the values) | 1.6% of 350,000 active | AID 720706, 2013;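 active means significant combined selectivity score with lowered wild-type GFP, culture density cut under 30%, mutant RFP and density less affected; inactive means any of these conditions unmet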; further: one replicate is shown; some compounds called inactive have numbers as strong as hits
Beta apoptosis = inhibitors of cytokine-induced beta cell apoptosis, primary screen, luminescence; INS-1E cytokine-induced death, ATP luminescence, 48 h; percent of positive-control rescue, neutral wells zero; protection from apoptosis, % (concentration not given with the values); 0.8% of 300,000 active;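 active means all replicates at 75% or more, or half of them and the mean; inconclusive means half reach 75% but not the mean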;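 further: 0% = cytokine-treated negative control wells and 100% = positive control rescue; higher means more ATP so stronger rescue from cytokine killing; wells of about 40 µL received 100 nL stock; the first replicate is given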
Calb FLC = C. albicans growth inhibition with fluconazole, primary screen, CaCi-2 strain, Alamar Blue fluorescence | C. albicans CaCi-2 (fluconazole-resistant clinical isolate) + fluconazole, 48 h | growth inhibition, % (test concentration not listed) | 0.57% of 300,000 active | AID 1979, 2009;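 active means most replicates above 75%; inconclusive means exactly half above 75%; inactive means most below 75%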;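 further: all wells also contain fluconazole at 8 µg/ml as a sub-toxic cotreatment; 0% = median of DMSO wells and 100% = median of geldanamycin control wells; wells of about 8 µL received 7.5 nL stock; the first replicate is given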
Beta2AR agonist = beta2AR agonists driving receptor internalization, primary screen, cell-based, FAP fluorogen, flow cytometry; Am2.2-beta2AR cells; reference of the scale not given here; response, % (test concentration not listed); 0.43% of 340,000 active;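 active means response above a set limit, near 3 SD of response in nonfluorescent compounds, cut at about 42% in these data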;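 further: stock transfer was 100 nL into about 11 µL; a reference agonist was the positive control; negative values mostly stem from fluorescent compounds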
LANA-H2B inh = blockers of LANA interaction with H2A/H2B – biochemical, FP readout, HTS, primary screen; cell-free LANA-H2A/H2B peptide, fluorescence polarization; Protein LANA1 (Human herpesvirus 8 type P (isolate GK18)), Q9QR71; 0.6% of 320,000 active; inhibition, % (no concentration beside the values); AID 2629, 2010; in the data active means inhibition mostly above about 10%, no sharp cut-off; inactive means mostly below about 6.7%;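 further: stock transfer was 7.5 nL into about 10 µL; 0% = median of vehicle wells and 100% = median of positive control wells; one replicate is shown; the record names a cut of 25% in any replicate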
Target sequence (Q9QR71 whole entry, looked up): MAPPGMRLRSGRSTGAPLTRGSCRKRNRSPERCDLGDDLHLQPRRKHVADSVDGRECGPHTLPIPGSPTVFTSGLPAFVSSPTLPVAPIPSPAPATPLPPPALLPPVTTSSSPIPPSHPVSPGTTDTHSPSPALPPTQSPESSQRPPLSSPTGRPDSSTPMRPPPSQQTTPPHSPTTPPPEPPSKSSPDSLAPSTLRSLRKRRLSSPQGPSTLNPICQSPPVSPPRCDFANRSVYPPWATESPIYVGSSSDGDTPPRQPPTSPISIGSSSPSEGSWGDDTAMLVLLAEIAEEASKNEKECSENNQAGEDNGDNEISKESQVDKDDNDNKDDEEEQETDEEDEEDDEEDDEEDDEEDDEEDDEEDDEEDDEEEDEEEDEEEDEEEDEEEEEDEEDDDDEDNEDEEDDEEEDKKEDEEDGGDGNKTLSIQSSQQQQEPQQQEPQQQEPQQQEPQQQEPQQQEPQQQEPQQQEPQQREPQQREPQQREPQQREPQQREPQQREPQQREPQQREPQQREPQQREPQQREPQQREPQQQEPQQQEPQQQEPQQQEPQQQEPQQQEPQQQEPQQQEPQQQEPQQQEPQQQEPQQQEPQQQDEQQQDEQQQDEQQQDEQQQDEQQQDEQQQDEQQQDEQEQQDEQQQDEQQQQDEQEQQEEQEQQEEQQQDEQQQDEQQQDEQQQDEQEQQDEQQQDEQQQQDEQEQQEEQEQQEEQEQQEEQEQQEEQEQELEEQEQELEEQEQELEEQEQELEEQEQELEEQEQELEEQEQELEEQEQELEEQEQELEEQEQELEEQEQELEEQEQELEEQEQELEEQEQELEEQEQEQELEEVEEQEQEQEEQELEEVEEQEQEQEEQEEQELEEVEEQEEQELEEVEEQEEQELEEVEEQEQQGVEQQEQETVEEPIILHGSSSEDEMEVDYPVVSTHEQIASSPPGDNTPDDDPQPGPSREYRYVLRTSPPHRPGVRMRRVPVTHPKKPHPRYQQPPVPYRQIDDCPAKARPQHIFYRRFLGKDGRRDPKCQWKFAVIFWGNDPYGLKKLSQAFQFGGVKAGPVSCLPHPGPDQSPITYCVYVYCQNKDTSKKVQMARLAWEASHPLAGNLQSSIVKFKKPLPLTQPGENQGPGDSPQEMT
Ecoli rRNA inh OD600 = recorded beside Ecoli rRNA inh, whose call it bears; OD600 change, %; measured here: OD600 growth;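 optical density of the mix in the first replicate; 0 = DMSO median and -100 = no signal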
Ecoli rRNA inh RFP = also measured in Ecoli rRNA inh; calls as there; RFP signal change, %; measured here: RFP humanized mutant strains;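 first replicate; 0 = DMSO median and -100 = no signal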
* marks the source's active call; other numbers are inactive results; ? = inconclusive; nt = no result given. Not all compounds are listed. The share of hits here may be higher or lower than overall.

SMILES	Bfl-1 A1 inh	ALR H2O2 inh	T cruzi inh	Ecoli rRNA inh	Ecoli rRNA inh OD600	Ecoli rRNA inh RFP	Beta apoptosis	Calb FLC	Beta2AR agonist	LANA-H2B inh
COc1ccc(NC(=O)/C(C#N)=C/c2ccc(-c3ccc(Cl)c(C(=O)O)c3)o2)cc1	-3.8	12	-2	-24	-35	-3.0	1	3	9	-0.4
COc1ccc(C)cc1C1=Nc2ccccc2C1(C)C	0.1	-13	-16	nt	nt	nt	-4	30	5	-3.2
O=S(=O)(/N=C(/c1ccccc1)N1CCCCCC1)c1ccccc1	0.9	-3	4	-13	-9	0.1	0	9	3	2.2
CCC(C)(C)C1CCc2[nH]nc(C(=O)NCc3ccccn3)c2C1 (stereo unspecified)	0.9	3	nt	-5	8	1.5	-5	nt	-22	-1.8
COc1ccc(OC)c(C2C(C(=O)c3ccc(C)o3)=C(O)C(=O)N2CCCN2CCOCC2)c1 (stereo unspecified)	0.7	7	nt	nt	nt	nt	nt	nt	9	1.9
CCOc1cc(/C=C2/C(=N)N3OC(C)=CC3=NC2=O)ccc1OC	1.1	2	-19	1	-1	-0.3	-2	6	4	-6.8
Cc1cccc(CS(=O)(=O)c2ncc(Cl)c(C(=O)Nc3ccc(F)cc3)n2)c1	nt	98*	-29	6	3	-4.5	nt	2	36	nt
O=C(CCC1CCCCC1)NCCN1C2=NC[C@H](Cc3ccccc3)N2C[C@H]1Cc1ccc(O)cc1	-0.3	-33	-14	nt	nt	nt	-2	-4	-7	0.6
COc1ccc(C)cc1NC(=O)c1cc2c(=O)n3ccccc3nc2n1C	-0.4	19	nt	21	21	4.1	-5	-10	-1	-1.1
Cc1cnc(Nc2nc3ccccc3o2)nc1C(=O)Nc1cccc(C(F)(F)F)c1	-0.1	nt	25	nt	nt	nt	9	?	-2	-3.6
O=C(COc1ccc(Br)cc1)NCCCNC(=O)c1cccnc1	-0.4	3	-2	0	-1	0.9	41	-1	2	5.9
O=C(COC(=O)C1CC1)NC(=O)c1ccccc1	-0.1	3	nt	16	11	1.4	-1	nt	-3	3.7
CCOC(=O)C1=C(C)NC(SCC(N)=O)=C(C#N)C1c1ccccc1 (stereo unspecified)	0.4	-2	7	nt	nt	nt	3	8	1	-1.7
CCC[N+]1(CC#CCC(c2ccccc2)c2ccccc2)CCCCC1	0.9	-46	64*	-55	-81	-16	105*	20	3	3.2
C/C(=N/OC(=O)c1ccc(C)cc1)c1ccc(N2C(=O)C3CCCCC3C2=O)cc1 (stereo unspecified)	0.1	0	-16	nt	nt	nt	-2	0	-5	5.3
COc1ccc(-c2noc(N3CCC(C(=O)NCCCN4CC(C)CC(C)C4)CC3)n2)cc1 (stereo unspecified)	0.1	-1	2	0	0	-1.0	-4	4	-6	-6.2
O=C(CCC(=O)Nc1ccc(F)cc1)N/N=C/c1cccc(Br)c1	-1.4	-18	0	-10	-18	9.4	2	1	-16	-2.6
COc1ccc(S(=O)(=O)N(C(C)=O)c2ccc3oc(=O)sc3c2)cc1	0.3	nt	-20	nt	nt	nt	-22	18	-1	-2.5
CC(C)(C)c1ccc(N2C(=N)SCC2=O)cc1	-0.7	-4	-5	-19	-16	-3.4	-13	-11	-3	7.5
CCOC(=O)N1CCC(NC(=O)c2cc3c(=O)n(C)c4ccccc4c3n2C)CC1	0.7	34	6	-8	-24	-0.8	6	-5	11	-0.5
COc1ccc(N2CCN(S(=O)(=O)c3ccc4c(c3)OCCO4)CC2)cc1	-0.2	34	21	3	1	0.8	-37	-2	6	-1.1
COC(=O)CCN(C(=O)c1cccc(OC(C)=O)c1)c1ccccn1	1.1	6	-11	nt	nt	nt	-6	-2	3	-5.0
Cn1c(=O)[nH]c(=O)c2c1nc(N1CCCCC1)n2C/C=N/Nc1ccc(C(=O)O)cc1	-0.6	32	10	11	2	1.1	-7	4	-4	4.7
NNc1ccc(Cl)c(C(=O)O)c1	-0.3	9	23	15	-2	-0.4	-4	1	-7	63*
C=CC[C@]12CCc3sccc3C1N(c1ccc(C(=O)OCC)cc1)C2=O (stereo partly specified)	-2.0	5	nt	-20	-36	-7.4	-4	nt	17	2.5
CSC1=NCCN1C(=O)Cc1cccc2ccccc12	-0.1	-44	-3	13	8	0.6	-2	6	-5	2.0
N#Cc1ccccc1Sc1ccccc1C(=O)OCC(=O)NC1CCCCC1	0.5	nt	-5	5	5	2.5	1	-1	-4	3.3
CCCCNC(=O)Nc1ccon1	2.4	-6	-7	nt	nt	nt	-5	10	-7	4.3
COC(=O)c1ccc(CNC(=O)COc2ccccc2Br)o1	0.5	4	-19	nt	nt	nt	-3	-24	1	-2.8
CCN(CC)CCCNC(=S)N(CCCO)Cc1cc2cc3c(cc2[nH]c1=O)OCO3	0.6	-21	-12	2	1	-1.3	2	1	-1	-0.5
Cc1ccc(S(=O)(=O)NCC(c2cccnc2)N2CCOCC2)cc1 (stereo unspecified)	0.3	-7	-15	16	8	1.2	-1	-25	-4	4.7
CCCN(Cc1ccccc1)C(=S)Nc1cccc(C)c1C	1.1	18	-10	10	14	1.8	0	18	5	8.3
Clc1ccc(Cl)c(OCCN2CCOCC2)c1	0.4	-2	-6	nt	nt	nt	-2	-2	4	-1.1
COc1ccccc1N1CCN(C(=O)C2CCC(CNS(=O)(=O)c3ccc(NC(C)=O)cc3)CC2)CC1 (stereo unspecified)	1.4	9	-10	1	2	1.2	-3	-16	-5	-2.2
O=C(Cc1ccccc1)Nc1cccc(NC(=O)c2ccccc2)c1	0.6	nt	-1	-23	-18	-0.8	-5	14	-8	4.0
Cn1c(-c2ccccc2)nc2cnccc21	-0.8	nt	-10	-1	4	-6.5	4	-3	-2	1.7
Cc1cc(-c2nc3ncccc3o2)ccc1NC(=S)NC(=O)C(C)C	0.1	-5	-17	10	12	-2.8	6	9	62*	2.2
CCOC(=O)N1CCC(N2Cc3cccc(C(=O)N4CC(C)CC(C)C4)c3C2=O)CC1 (stereo unspecified)	-0.1	-5	2	nt	nt	nt	-8	1	-10	4.3
CC(=O)Nc1cc(C(F)(F)F)ccc1OCC1CCCO1 (stereo unspecified)	0.0	0	nt	nt	nt	nt	0	-4	2	2.4
O=C(N/N=C/c1ccco1)C1(O)c2ccccc2-c2ccccc21	-0.5	6	-5	13	9	0.5	-4	-7	-8	3.3
COc1ccc2occ(C(=O)c3ccc(N=C(C)N(C)C)cc3)c2c1	0.5	2	-5	nt	nt	nt	2	-13	5	-2.2
CCN(CC)C(=O)c1cc(-c2ccc(Br)cc2)on1	-2.3	-11	12	nt	nt	nt	0	-7	-7	-4.2
COc1ccc(CN(C(=O)COc2ccccc2)c2ccccc2C(=O)O)cc1	0.0	3	3	5	3	-1.2	-3	?	3	2.1
Cc1cc(C(=O)N/N=C2\CCCC(=O)C2)c(C)n1-c1ccccc1	0.8	10	-7	nt	nt	nt	-3	4	-9	2.2
O=C(c1ccccc1)c1nn(-c2ccccc2)c2nnc(Cc3ccccc3)c(=O)n12	0.4	-5	9	-5	-3	0.7	nt	?	-2	-0.4
COC(=O)CCSC(=S)N1CCOCC1	-0.2	2	-1	3	0	-4.5	-4	-9	4	7.1
O=C(Cn1cc[n+](CC(=O)c2ccc(Cl)cc2Cl)c1)c1ccc(Cl)cc1Cl	0.0	nt	41	-54	-84	-15	15	1	-8	-1.7
CCn1cnc2cc(NS(=O)(=O)c3ccc(C)cc3)ccc21	-0.2	-1	-12	nt	nt	nt	1	-22	-3	-8.9
O=C(Nc1ccccc1C(=O)N1CCCC1)C1CCN(c2ncccn2)CC1	-0.2	-5	3	nt	nt	nt	-3	1	-4	-2.5
COc1ccc(NC(=O)COC(=O)C2CCN(C(=O)c3ccc(Cl)cc3)CC2)c([N+](=O)[O-])c1	-1.4	-6	nt	-7	5	4.1	-7	nt	2	-9.6
COc1ccc(/C=C/C(=O)Nc2ccc(N3CCOCC3)cc2)cc1	-0.3	nt	-10	nt	nt	nt	-2	-11	5	-5.3
CC(C)CCNC(=O)CCc1nnc(COc2ccccc2)o1	nt	nt	1	5	1	-2.1	nt	-9	-1	nt
CCn1c(C)cc(/C=C2/SC(=O)N(C(C)C(=O)OC)C2=O)c1C (stereo unspecified)	-0.7	64	21	-3	0	6.6	-1	-1	0	5.9
CC(C)NS(=O)(=O)c1ccc(NC(=O)C(C)OC(=O)CCC(=O)c2cccs2)cc1 (stereo unspecified)	0.5	-1	nt	-4	-1	-3.5	-4	nt	9	-1.3
CCOc1ccc(Nc2nc3ccccc3c(=O)s2)cc1	0.7	-1	-3	11	0	-5.5	3	-9	-9	3.7
Cc1cc(C(=O)NCc2ccco2)c2ccccc2n1	-5.0	-26	-2	10	4	1.8	nt	7	-1	1.3
CCOc1cccc(C(=O)Nc2cccc(-c3nnc(-c4ccc(C)cc4)o3)c2)c1	20*	nt	3	nt	nt	nt	13	-2	-3	-3.4
O=C(Cc1nn[nH]n1)c1ccccc1O	0.9	-4	-1	-9	-2	0.8	-7	-2	2	-1.0
Cc1cnc(SCCc2ccncc2)nc1C	-0.1	99*	-11	nt	nt	nt	-1	2	nt	-1.1
O=C1NN(c2cccc(Br)c2)C(=O)/C1=C\c1ccccc1	0.4	89*	8	-12	-15	3.9	-17	-11	39	0.1

Next entries follow:
SMILES	Bfl-1 A1 inh	ALR H2O2 inh	T cruzi inh	Ecoli rRNA inh	Ecoli rRNA inh OD600	Ecoli rRNA inh RFP	Beta apoptosis	Calb FLC	Beta2AR agonist	LANA-H2B inh
O=C(Nc1ccc(Cl)cc1)c1cnc(-c2ccccc2)nc1-c1ccccc1	0.7	nt	7	nt	nt	nt	11	?	10	1.6
CCN(CC(=O)NCc1ccc(Cl)cc1)C(=O)COc1cccc(C(F)(F)F)c1	0.3	-1	-1	-31	-31	-5.0	-1	10	2	2.8
Cc1cccc(NS(=O)(=O)c2cccc(C(=O)NCC(c3ccco3)N(C)C)c2)c1 (stereo unspecified)	0.9	-5	-6	1	7	-1.6	-4	-5	7	1.0
COc1ccccc1-c1nc(C#N)c(N2CCCCCC2)o1	-0.3	4	7	nt	nt	nt	nt	27	1	-3.3
CCn1nnc(NC(=O)c2ccc(-c3ccccc3[N+](=O)[O-])o2)n1	-0.5	-37	0	3	1	0.3	-4	13	-2	7.2
COc1cc(NC(=O)CSc2nc(=O)n(CCN3CCOCC3)c3c2CCC3)cc(OC)c1	-0.1	97*	19	3	4	-0.9	-1	2	-2	0.6
O=C(CSc1cccc2cccc(Cl)c12)NCc1cccs1	-0.1	-23	19	-40	-59	-0.4	-1	-10	0	-2.2
